# Source: PubChem BioAssay (National Center for Advancing Translational Sciences (NCATS))
# Rango dissoc inh – prevents RanGTP from dissociating the Rango-importin beta complex | O95149+P62826 | Biochemical FRET Rango-importin beta, RanGTP-induced dissociation | Potency, µM (doses to about 46.1 µM), for inactives: at the highest dose activity change, negative = inhibition | 340,000 tested, 0.071% active; active means falling FRET ratio curve, often poorly fitted, with flat reads before Ran was added; inconclusive means other falling curves, or compound fluorescence or quenching; inactive means flat or rising ratio curve;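 also: potency is read from the fitted curve at half-maximal effect; % of control where 0% means no effect; nearly all actives have a fitted effect of over 45% in size; -100% = wells without RanGTP and RCC1; the record marks most hits as doubtful in a second field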
#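 Quantitative HTS using a FRET biosensor: 0.1 uM Rango, 0.25 uM importin beta, 0.6 uM Ran, 2 mM GTP, 0.2 uM RCC1 final, PBS with DTT, Tween-20 and BSA. Post-read taken 45 min after Ran addition.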
# Rango-impB inh – prevents formation of the Rango-importin beta complex | Potency, µM (titrated, usually from 92.2 µM), without a hit: top-dose inhibition of complex formation | 340,000 tested, 0.031% active | Rango CFP/YFP FRET sensor + importin beta, 45 min; active = rising FRET ratio curve, often small or poorly fitted; inconclusive = mostly compound fluorescence or quenching in the first reads; inactive = flat curves in all reads;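 also: potency is read from the fitted curve at half-maximal effect; 0% = DMSO wells and 100% = buffer wells lacking importin beta; nearly all actives have a fitted effect of over 15% in size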
#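 Inhibition scored from the CFP 486 nm/YFP 530 nm FRET ratio 45 min after adding 0.125 microM importin beta to 50 nM Rango biosensor preincubated 5 min with compound (room temperature, PBS with DTT, Tween-20, BSA). No-importin wells as positive control.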
# miR-21 FLuc – raises the signal of a miR-21 reporter; 340,000 tested, under 10 active; Potency, µM (titrated, usually from 38.3 µM), inactives show at the highest dose reporter change, positive = more light; HeLa miR-21 FLuc reporter, luciferase, 48 h; active = well fitted rising curve with a large enough effect; inconclusive = small, poorly fitted or top-dose-only effect; inactive = no such curve, though single readings can be large or run the other way;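 also: % of control where 0% means no effect; miR-21 action dims this reporter so a rising signal means less miR-21 action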
#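 Compounds were titrated across several concentrations (up to approximately 40 uM) and incubated 48 hours with HeLa miR-21-FLuc reporter cells (miR-21 target sequence downstream of FLuc, endogenous miR-21). Readout was firefly luciferase luminescence after lytic detection reagent.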
# GLA inh pH 4.5 – inhibitors of human alpha-galactosidase A at pH 4.5. P06280. purified enzyme, 4-MU-alpha-Gal fluorescence, pH 4.5. activity change, negative = inhibition, % at 105 µM. 230,000 tested, under 10 active; inconclusive = small, poorly fitted or top-dose-only inhibition, or a rising curve; inactive = flat fitted curve, though single readings scatter; no compound was filed as active;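 also: 0% = full activity with enzyme and -100% = basal without enzyme; dose as in the result columns while the protocol names 77 µM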
# Target sequence (P06280 whole entry, looked up): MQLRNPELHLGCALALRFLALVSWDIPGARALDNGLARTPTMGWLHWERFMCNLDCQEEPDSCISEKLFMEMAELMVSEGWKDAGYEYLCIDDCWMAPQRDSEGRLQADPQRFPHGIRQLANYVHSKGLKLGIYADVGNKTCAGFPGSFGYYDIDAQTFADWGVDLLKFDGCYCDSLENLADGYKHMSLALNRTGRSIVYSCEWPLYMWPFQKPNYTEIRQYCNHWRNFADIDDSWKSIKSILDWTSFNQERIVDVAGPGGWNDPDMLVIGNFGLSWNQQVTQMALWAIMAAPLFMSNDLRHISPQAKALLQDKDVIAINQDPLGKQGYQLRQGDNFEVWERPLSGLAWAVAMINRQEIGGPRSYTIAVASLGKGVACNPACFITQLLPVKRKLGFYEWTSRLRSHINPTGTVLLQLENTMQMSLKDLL
# Starred values were filed as active, the others as inactive; u = inconclusive; x = no result given; & = joins results of further samples; [ ] = dose if it differs, or a comment.
Rango dissoc inh	Rango-impB inh	miR-21 FLuc	structure	GLA inh pH 4.5
u	u	16%	CC1=Nc2cc(C(=O)NCc3ccco3)ccc2Sc2ccc(C)cc21	7
-14%	5.6%	-5%	CCCCN(CC)CCCNC(=O)c1cc2cc3ccc(C)cc3nc2o1	x
2%	4.5%	-9%	O=C(C[n+]1cc(-c2ccccc2)n2c1CCC2)OCc1ccccc1	0
-9%	-0.9%	4%	CCOC(=O)C1=C(C)NC2=C(C(=O)CCC2)C1c1cc(OC)ccc1OC (stereo not drawn)	1
-4%	1.9%	x	Cc1ccc(NC(=O)C2CCN(C(=O)c3ccccc3C)CC2)nc1	x
2%	-0.7%	-14%	Cc1ccc(OCC(=O)N/N=C/c2c[nH]c3ccccc23)c([N+](=O)[O-])c1	-1
-21%	3.3%	-14%	Cc1ccc(NC(=O)C2(c3ccccc3)CCOCC2)cc1	6
-6%	0.3%	4%	Cn1c2ccccc2c2cnn(CC(=O)Nc3ccc(F)cc3F)c(=O)c21	3
0%	u	-6%	CCNC(=O)COC(=O)c1cc(-c2ccc(OC)cc2)nc2ccccc12	4
-23%	u	-33%	COc1ccc(CNC(=O)N2CCc3ccccc3C2)cc1Cl	x
1%	-4.9%	0%	Cc1ccc(OCC(=O)c2ccc(Cl)s2)c([N+](=O)[O-])n1	7
10%	-1.5%	x	O=C1CCc2cc(S(=O)(=O)NC3CCCCC3)ccc2N1	x
-8%	u	-13%	C#CCn1c(=NC(=O)CSCC(=O)N2CCOCC2)sc2ccccc21	-1
3%	-3.0%	8%	CS(=O)(=O)N(CCc1ccccc1)CC(=O)NCc1ccc(Cl)cc1	1
0%	1.4%	-31%	Cc1cnc(NC(=O)CSc2ccccc2)s1	1
12%	-0.6%	x	O=C(CC1SC(N2CCCCC2)=NC1=O)Nc1ccc(C(=O)NCCc2ccc(F)cc2)cc1 (stereo not drawn)	x
-1%	-1.2%	-23%	COC(=O)C(CC(=O)c1ccc(Cl)cc1)c1ccc(C(C)C)cc1 (stereo not drawn)	5
-8%	2.5%	x	O=C(CN1CCN(c2ccccc2O)CC1)Nc1ccnn1C1CCCC1	x
10%	2.3%	-3%	CCOc1ccc(S(=O)(=O)N2CCCCC2)c(C)c1C	5
u	-0.1%	x	COc1ccc([C@H]2CC(=O)C=C(c3ccccc3)C2)cc1	x
-4%	0.9%	-28%	O=C(O)/C=C\c1cn(-c2ccccc2)nc1-c1cc2ccccc2o1	-15
-9%	-2.4%	2%	Cc1cc(NC(=O)/C(C#N)=C/c2ccco2)n(-c2ccccc2)n1	4
0%	1.1%	x	CC(=O)c1cccc(NC(=O)C2CC(=O)N(c3ccc4c(c3)OCCO4)C2)c1 (stereo not drawn)	x
5%	-8.3%	0%	CCOC(=O)C(C)Sc1nc(-c2ccccc2)nc2ccc(F)cc12 (stereo not drawn)	3
11%	u	u	CCCCCc1cc(=O)oc2c(C(CCN(CC)CC)c3cc(OC)c(OC)c(OC)c3)c(OC)cc(OC)c12 (stereo not drawn)	-24
1%	0.3%	0%	Cc1c(C)c2ccc(OCC(=O)NCCN3CCOCC3)cc2oc1=O	x
-27%	-3.8%	8%	CCOc1cc(/C=C2/NC(=O)N(CC(=O)OC)C2=O)ccc1OC	-6[21.1 µM]
-14%	-1.8%	-9%	CC(CNC(=O)COc1ccccc1)OC(=O)Nc1cccc(Cl)c1 (stereo not drawn)	-16
-2%	-1.6%	-2%	O=C(O)CCS(=O)(=O)Cc1ccccc1Cl	4
-9%	-0.6%	-7%	CC(C)c1nnc(-c2ccc(Cl)cc2)c(N(C)C)n1	-6
-24%	-0.3%	-8%	O=C(O)CSc1nnc(Cc2cccc3ccccc23)n1-c1cc(C(F)(F)F)cc(C(F)(F)F)c1	-4
-15%	0.2%	2%	S=C1NCCc2ccccc2C1c1ccccc1 (stereo not drawn)	7
1%	0.6%	-47%	Cc1cc(OCC(=O)N2CCOCC2)cc2oc(=O)c3ccccc3c12	5
-7%	-1.5%	-4%	Cc1csc2c(=O)sc(NC(=O)c3ccc(F)cc3)nc12	-12
8%	3.5%	-2%	COc1cccc(CN(C)Cc2c(O)ccc3ccccc23)c1	x
-10%	0.0%	-2%	O=C(CSc1cn[nH]n1)Nc1cccc(C(F)(F)F)c1	x
3%	-0.7%	-31%	C=C(C)CSc1nnc(-c2ccc(OC)cc2)n1N	-6
17%	0.5%	-53%	CCCCOc1ccc(CN(CCO)CCO)cc1[N+](=O)[O-]	-2
18%	-4.7%	-6%	Cc1cc(C)nc(Sc2ncnc3c2oc2ccccc23)n1	-2
12%	-3.5%	-6%	COC(=O)c1cccc(S(=O)(=O)N2CCC(c3nc4ccccc4o3)CC2)c1	-10
13%	0.0%	-23%	COc1ccc(/C=N/n2cnnc2SCc2ccccc2)cc1	-4
-6%	-4.3%	1%	CC1(C)CC(=O)C=C(NCC(O)c2ccccc2)C1 (stereo not drawn)	x
6%	0.9%	0%	CC1=C(C(=O)OCC(C)C)C(c2ccc(F)cc2)NC(=O)N1 (stereo not drawn)	0
0%	-0.2%	-9%	CCOc1ccc(N=Nc2c(C)noc2C)cc1	-19
-2%	u	1%	O=C(O)Cn1c(COc2ccc(Cl)cc2)nc2ccccc21	-3
-2%	-1.5%	x	CC(=O)N1CCN(C(=O)COc2ccc3oc4c(c3c2)CCCC4)CC1	x
16%	0.8%	0%	Cc1c(NS(=O)(=O)N2CCCC2)c(=O)n(-c2ccccc2)n1C	0
19%	-1.0%	-2%	Cc1ccc(Cn2ccc(NC(=O)c3cc(-c4ccc5c(c4)OCO5)on3)n2)cc1	-19
u	u	17%	N#C/C(=C/c1ccc(Sc2nc3ccccc3[nH]2)o1)c1cccc(Br)c1	-20
-11%	0.2%	-1%	CCN(CC)S(=O)(=O)c1ccc(N2CCOCC2)c(NC(=O)c2ccc(F)cc2)c1	-15
-5%	0.2%	5%	COc1ccc(C)cc1NC(=S)N1CCOCC1	x
x	x	-2%	CC(=O)Nc1ccc(NC(=O)Cc2ccc(F)cc2)cc1	3
-17%	-1.3%	-16%	O=C(CSc1ncn[nH]1)c1cc2ccccc2o1	2
13%	-0.7%	x	Cc1cccc(NC(=O)CNC(=O)c2cccc(-n3cccc3)c2)c1C	x
4%	-0.3%	-49%	O=c1c2ccccc2nc2oc3ccccc3n12	x
1%	-0.5%	0%	COc1ccc(CNC(=O)Cn2c(=O)n(CC(=O)N3CCCCC3)c(=O)c3sccc32)cc1	x
-14%	-1.5%	x	O=C1C(=O)c2ccccc2C(O)=C1CC=C(Cl)Cl	x
3%	0.9%	-8%	CCS(=O)(=O)N1CCC(C(=O)NCc2cccs2)CC1	-14
5%	6.5%	5%	COc1cc(/C=C2/SC(=S)N(CCC(=O)Nc3ccc(C(=O)O)cc3)C2=O)cc(OC)c1OC	x
-1%	0.6%	0%	COc1cccc(-c2c(C(=O)N/N=C(\C)c3cccs3)nnn2-c2nonc2N)c1	x

# Further results.
Rango dissoc inh	Rango-impB inh	miR-21 FLuc	structure	GLA inh pH 4.5
-14%	u	x	CCCn1c(C)cc(C(=O)CN2C(=O)c3ccccc3C2=O)c1C	x
0%	-5.8%	-46%&-38%	O=C(CSCc1cccc(F)c1)NCc1ccccc1	4
28%	4.5%	0%	CCn1cc(C(=O)NCCO)c(=O)c2cc(F)c(N3CCN(C)CC3)cc21	x
-14%	5.0%	-1%	CCN(CC)CCNC(=O)CCCCn1c(=S)[nH]c2c([nH]c3ccc(OC)cc32)c1=O	-16
6%	0.9%	-44%	CCN(CC)c1ccc(NC(=O)c2cnn(CC)c2)cc1	-15
0%	-0.6%	-9%	Cc1ccc(NC(=O)N2CCCCC2)cc1NC(=O)N1CCCCC1	2
8%	-0.7%	x	CC1=CCC(C(C)(C)NC(=O)c2ccccc2)C/C1=N\O (stereo not drawn)	x
-2%	0.5%	-2%	CCOC(=O)c1c(C)c(C(=O)NCCc2ccc(S(N)(=O)=O)cc2)c(C)n1CC	-5
-9%	-3.9%	-2%	O=S(=O)(NCCNS(=O)(=O)c1ccccc1)c1ccccc1	4
-3%	-1.1%	-9%	Cc1ccc(NC(=O)N2CCC(C(=O)NCC(C)C)CC2)cc1	-2
14%	2.0%	-3%	CCn1nc(NS(=O)(=O)c2ccc(C)cc2)c2cc3ccccc3nc21	x
5%	0.6%	-5%	O=C(Nc1ncc(S(=O)(=O)c2ccc([N+](=O)[O-])cc2)s1)c1cccc2ccccc12	1
-6%	-3.0%	-16%	COc1ccc(-c2cc3cccc(OC)c3oc2=O)cc1	x
-6%	u	23%	C=CCOC(=O)C1=C(C)NC(SCC(=O)Nc2nccs2)=C(C#N)C1c1cccs1 (stereo not drawn)	-5
-12%	0.6%	0%	Cc1cccc(-c2oc3ccccc3c2C#CCCO)c1	x

# An excerpt of these results, with values under each structure.
# Below each compound – Rango dissoc inh	Rango-impB inh	miR-21 FLuc	GLA inh pH 4.5
CCN(CC)CCNC(=O)CCCCn1c(=S)[nH]c2c([nH]c3ccc(OC)cc32)c1=O
  -14%	5.0%	-1%	-16
CCN(CC)c1ccc(NC(=O)c2cnn(CC)c2)cc1
  6%	0.9%	-44%	-15
Cc1ccc(NC(=O)N2CCCCC2)cc1NC(=O)N1CCCCC1
  0%	-0.6%	-9%	2
CC1=CCC(C(C)(C)NC(=O)c2ccccc2)C/C1=N\O (stereo not drawn)
  8%	-0.7%	x	x
CCOC(=O)c1c(C)c(C(=O)NCCc2ccc(S(N)(=O)=O)cc2)c(C)n1CC
  -2%	0.5%	-2%	-5

# Following part.
Rango dissoc inh	Rango-impB inh	miR-21 FLuc	structure	GLA inh pH 4.5
-8%	-1.9%	-3%	COc1ccc(S(=O)(=O)NCC2CCCO2)cc1NC(=O)c1ccccc1 (stereo not drawn)	x
-1%	3.7%	-1%	COc1cc2c(cc1OC)CN(c1nc(CN3CCOCC3)nc3sc4c(c13)CCC(C)C4)CC2 (stereo not drawn)	-11
4%	-1.9%	1%	CCc1noc(C)c1C(=O)NCCc1ccc(OC)c(OC)c1	4
21%	-2.0%	-6%	O=C(Nc1ccc(N2CCOCC2)cc1)c1ccc(S(=O)(=O)N2CCCCC2)cc1	-24
-6%	1.9%	4%	O=C(NCCc1ccc(Cl)cc1)C1CCN(C(=O)c2ccc(F)cc2)CC1	x
3%	0.6%	x	CC1(c2ccc(Cl)cc2Cl)NC(=O)N(CC(=O)NC2CCCCC2)C1=O (stereo not drawn)	x
9%	0.0%	-3%	CCCCNC(=O)Cn1cnc2sc(C(=O)OCC)c(C)c2c1=O	7
15%	-5.2%	2%	Cc1c(C(=O)c2ccc(Cl)c([N+](=O)[O-])c2)c2ccccn2c1CCC#N	-1
-10%	-1.0%	-4%	CCOC(=O)C(NC(=O)CCl)(Nc1sc(C)c(CC)c1C#N)C(F)(F)F (stereo not drawn)	-9
-7%	-0.6%	11%	CCc1noc(C)c1C(=O)N1CCC(CCC(=O)Nc2cccc(OC)c2)CC1	x
-7%	1.2%	x	CCOc1ccc(C(=O)NC(C(=O)NCC(c2cccs2)N(C)C)C(C)C)cc1 (stereo not drawn)	x
13%	0.4%	-4%	CC(=O)c1c(C(C)=O)c(C)n(-c2nc(-c3ccc(Br)cc3)c(C)s2)c1C	4
-3%	4.6%	0%	CN(C)CCOC(=O)c1sc2ccccc2c1Cl	4
-9%	0.0%	x	O=C(CN1C(=O)NC2(CCCc3ccccc32)C1=O)c1ccc(F)cc1 (stereo not drawn)	x
2%	u	-5%	COC(=O)c1cc(-c2ccc3c(c2)OCO3)nc2ccccc12	-3
u	u	-30%	COc1ccc(C2c3ccc(O)cc3Oc3ncn(Cc4ccccc4)c(=N)c32)cc1OC (stereo not drawn)	-9
-3%	2.5%	-2%	O=C(Oc1ccc(N(Cc2cccs2)C2=NS(=O)(=O)c3ccccc32)cc1)c1ccc(Cl)cc1	-1
4%	-0.3%	x	O=S(=O)(Oc1ccccc1-c1ccccc1)c1ccccc1	x
-10%	-4.1%	-1%	Cc1cc([N+](=O)[O-])ccc1NC(=O)C(C)NC1CCCCC1 (stereo not drawn)	x
8%	3.5%	-15%	COc1cc(CCC(=O)OCC(=O)Nc2ccc(C)cc2Br)cc(OC)c1OC	x

# An excerpt; the hit share may differ from the screen's.
